GALR2 ag = GALR2 receptor agonists, primary screen, cell-based. 140,000 tested, 0.48% active. AID 803, 2007. activation, %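 (tested at 5 µM)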. GALR2-expressing cells, agonist activation read-out;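 active = above mean plus 3 SD of all compounds, about 5% in these data, not always enough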;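 also: 0% = vehicle buffer wells and 100% = reference agonist at full effect; tested in CHO reporter cells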
Target sequence (O43603 whole entry, looked up): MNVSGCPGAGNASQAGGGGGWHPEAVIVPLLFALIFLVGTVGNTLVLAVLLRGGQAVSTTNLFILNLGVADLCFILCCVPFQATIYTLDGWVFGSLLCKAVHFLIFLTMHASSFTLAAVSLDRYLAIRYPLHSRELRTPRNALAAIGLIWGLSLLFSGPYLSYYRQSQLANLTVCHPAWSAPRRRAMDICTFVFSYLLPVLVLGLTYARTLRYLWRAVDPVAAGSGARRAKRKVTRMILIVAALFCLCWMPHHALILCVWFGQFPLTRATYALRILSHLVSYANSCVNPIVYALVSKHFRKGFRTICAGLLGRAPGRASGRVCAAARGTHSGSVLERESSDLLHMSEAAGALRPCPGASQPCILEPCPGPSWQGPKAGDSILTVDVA
INS promoter inh = inhibitors of insulin promoter-driven GFP, primary screen, imaging, TRM-6 cells (human fetal islet line), eGFP reporter, cell count. reporter expression induced with tamoxifen. inhibition, % at 2 µM. 130,000 tested, 0.9% active. AID 1273, 2008;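 active = inhibition above the mean plus 3 SD, with well images judged a real hit on visual review, cut at about 60% in these data, passing the limit was not always enough; inconclusive = inhibition over the cutoff but images rejected on review; inactive = inhibition not above the cutoff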
HSV augment = enhancers of HSV replication in host cells, fold increase, host cell viability | HSV replication augmentation in cells | maximum fold increase | 220,000 tested, 0.005% active | AID 1956, 2009;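 active = peak rise of 1.5-fold or more in the series; inconclusive = self-fluorescent or not available for retest; tested in PC3 cells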;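 also: first round at 10 µM; read as green reporter fluorescence; hits show the peak of a series up to 25 µM; 1 = signal of infected wells without compound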
RGS16-Gao = modulators of RGS16 binding to Galphao, primary screen, biochemical, human proteins, multiplexed bead flow cytometry. Regulator of G-protein signaling 16 (Homo sapiens) + Guanine nucleotide-binding protein …. bead-based flow cytometry RGS16-Galphao binding, fluorescence; actives lie on both sides. binding response (% of control), % at 10 µM. 220,000 tested, 0.38% active;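 active = below 25% or above 175%, edge rows of some plates excepted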;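 also: Galphao activated by GDP with aluminum fluoride before binding; 100% = wells without compound and 0% = beads without RGS; some results beyond the cut were filed as inactive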
Target sequence (O15492 whole entry, looked up): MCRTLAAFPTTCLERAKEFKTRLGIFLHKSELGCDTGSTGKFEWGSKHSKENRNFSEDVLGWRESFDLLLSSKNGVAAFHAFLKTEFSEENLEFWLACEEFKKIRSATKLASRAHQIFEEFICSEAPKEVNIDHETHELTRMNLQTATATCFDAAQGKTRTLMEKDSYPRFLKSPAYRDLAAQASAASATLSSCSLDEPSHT
Target sequence (P09471 whole entry, looked up): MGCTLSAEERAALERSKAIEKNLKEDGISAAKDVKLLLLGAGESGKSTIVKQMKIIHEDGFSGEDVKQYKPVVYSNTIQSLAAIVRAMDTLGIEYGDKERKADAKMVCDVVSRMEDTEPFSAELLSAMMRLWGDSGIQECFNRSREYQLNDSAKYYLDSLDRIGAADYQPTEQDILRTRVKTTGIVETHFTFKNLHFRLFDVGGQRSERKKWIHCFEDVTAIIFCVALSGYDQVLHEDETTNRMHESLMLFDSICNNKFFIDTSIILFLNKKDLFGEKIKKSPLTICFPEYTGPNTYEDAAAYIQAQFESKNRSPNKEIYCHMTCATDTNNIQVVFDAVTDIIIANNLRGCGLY
PKD1 inh = inhibitors of human PKD1 kinase, biochemical, fluorescence polarization | 200,000 tested, 0.056% active | PKD1 kinase fluorescence polarization assay | inhibition, %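 (about 10 µM by stock and volumes)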;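 active = inhibition of 50% or more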;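 also: controls were vehicle for no effect and a reference inhibitor for full effect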
INS promoter inh cell count = second read-out of INS promoter inh, no call of its own (marks repeat the call); normalized cell count, %; measured here: cell count, toxicity; reference of the scale not given here;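 cells exposed to compound for 48 h; stained nuclei by imaging scaled within each plate; lower means fewer cells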
HSV augment primary fold = second read-out of HSV augment, no call of its own (marks repeat the call); fold increase; compound at 10 µM; measured here: primary screen fold increase 10 uM; tested in PC3 cells;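 GFP signal in the first replicate; 1 = infected wells without compound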
Numbers without * were called inactive; i = inactive; ? = inconclusive; · = no result given.

Order of results: GALR2 ag, INS promoter inh, INS promoter inh cell count, HSV augment, HSV augment primary fold, RGS16-Gao, PKD1 inh
- CC1(C)OC(c2ccccc2)=C/C(=C/C=N/NC(=O)c2ccncc2)O1
→ ·, -7.7, 88.7, i, 0.92, 95.1, -7.6
- COc1cccc(/C=N/Nc2snc(SC)c2C#N)c1O
→ -2.0, 0.0, 107.4, i, 0.89, 101.2, -7.1
- CCCOc1ccc(-c2nc(-c3ccc([N+](=O)[O-])cc3)cs2)cc1
→ ·, ·, ·, i, 0.85, 99.2, ·
- Cc1nc(NCCO)c2nnn(Cc3ccccc3F)c2n1
→ -1.9, ·, ·, i, 0.99, 104.4, 1.8
- CC(=O)c1ccc(-n2c(SCC(=O)c3c[nH]c4ccccc34)nc3ccccc3c2=O)cc1
→ 1.5, ·, ·, i, 1.07, 444.0, -6.3
- O=C(O)c1ccc(S(=O)(=O)Cc2ccccc2)cc1
→ -3.4, -79.3, 136.0, i, 0.83, 99.4, -9.4
- NNC(=O)CNC(c1ccccc1)c1cc(Br)ccc1NC(=O)CCN1CCOCC1 (stereo not given)
→ -2.1, 4.2, 89.2, i, 0.66, 97.2, 2.3
- Cc1cc(C(=O)NCCc2ccc(Cl)cc2)n(-c2ccccc2)n1
→ ·, ·, ·, i, 1.02, 113.7, ·
- COc1ccc(OC)c(-c2nnc(SCC(=O)NC3CCCCC3)o2)c1
→ -0.9, -71.4, 76.4, i, 1.1, 103.8, 5.7
- CCCCOc1ccccc1C(=O)NCC(=O)O
→ -0.7, ·, ·, i, 0.88, 105.9, -5.6
- CCOc1ccc(CNCCNC(=O)c2nonc2N)cc1
→ ·, -36.4, 156.0, i, 0.99, 110.2, -1.9
- O=C(/C=C/c1cccs1)c1cc(Cl)ccc1OC(=O)N1CCOCC1
→ -0.2, -17.4, 77.1, i, 1.05, 106.1, -4.7
- Cc1ccc(C(=O)Nc2ccccc2SCC2CSc3nc4ccccc4c(=O)n32)cc1 (stereo not given)
→ 1.2, 2.3, 89.2, i, 0.77, 97.1, 1.1
- CN1CCN(C(=S)c2cn(Cc3ccccc3F)c3ccccc23)CC1
→ ·, -29.4, 78.4, i, 0.91, 131.1, -6.0
- COC(=O)C1(O)CC(C(C)C)=NN1C(=O)c1ccccc1 (stereo not given)
→ 0.4, 41.7, 84.0, i, 1.08, 110.7, -0.3
- CC(=O)c1c(O)cc(C)n(-c2ccc(F)cc2)c1=O
→ ·, 16.7, 144.5, i, 1.04, 101.1, 3.5
- CSc1ccccc1C(=O)NCc1ccc2c(c1)OCO2
→ -1.1, 16.7, 86.4, i, 1.17, 102.3, -7.1
- COC(=O)CCCCCCCCC(=O)Nc1nc2ccccc2s1
→ -2.2, -31.6, 117.1, i, 0.99, 101.2, 1.3
- O=C(Nc1ccc(C(F)(F)F)cc1)C1CCCN1S(=O)(=O)c1cccc2cccnc12 (stereo not given)
→ 0.1, ·, ·, i, 0.97, 100.8, -5.3
- Cc1ccccc1C(=O)Oc1cc(N)n(S(C)(=O)=O)n1
→ ·, 27.8, 116.6, i, 1.43, 102.4, 3.5
- Cc1cccc(C)c1NC(=O)CCn1cnc2ccccc2c1=O
→ ·, ·, ·, i, 0.91, 97.0, -3.0
- COC(=O)c1nnn(-c2ccsc2C(=O)OC)c1C(=O)OC
→ ·, ·, ·, i, 1.04, 104.5, 2.8
- Cc1nc(SCC(=O)NCc2ccco2)c2c(=O)n(C)c(=O)n(CC(C)C)c2n1
→ ·, ·, ·, i, 0.78, 101.3, 1.4
- CCC(C)NC(=O)CCC(=O)Nc1ccc2nc(N3CCOCC3)cc(C)c2c1 (stereo not given)
→ -0.7, ·, ·, i, 0.993, 75.8, 0.7
- O=C(CCCOc1ccc(Cl)cc1Cl)NCCCn1ccnc1
→ ·, ·, ·, i, 0.89, 98.4, -1.3
- COC(=O)CCC(=O)OC1(C)C(=O)C=C2C=C(C3CC3)N(CCN3CCOCC3)C=C2C1=O (stereo not given)
→ ·, ·, ·, i, 1.08, 104.6, ·
- Cn1c(NCCc2ccccc2)cc(=O)n(C)c1=O
→ 0.2, ·, ·, i, 0.75, 102.3, 8.2
- COc1cc(C(=O)Nc2ccccc2N2CCOCC2)ccc1OCc1c(C)noc1C
→ -0.1, 7.1, 116.6, i, 0.88, 103.1, -4.6
- Cn1nc(C(C)(C)C)c(NC(=O)c2sccc2Cl)c1C(C)(C)C
→ ·, ·, ·, i, 1.08, 99.3, ·
- O=C(CSc1ncccn1)NCCc1ccccc1
→ -1.2, 54.4, 119.4, i, 0.96, 107.6, -2.3
- CCCc1cc(N2CCCC(C(=O)Nc3ccc(OC)cc3OC)C2)n2ncnc2n1 (stereo not given)
→ 0.2, ·, ·, i, 1.19, 105.2, -3.8
- Cc1cc(=O)n(-c2ccc3ccccc3n2)[nH]1
→ 0.6, 3.7, 141.4, i, 0.85, 113.8, -5.0
- COc1cccc(-c2nnn(CC(=O)O)n2)c1
→ -3.3, -20.7, 82.4, i, 1.01, 115.9, 8.6
- O=C(Nc1ccc(C(=O)N2CCCC2)cc1)c1ccc2c(c1)OCO2
→ 0.2, 23.3, 68.6, i, 0.75, 101.8, -3.0
- COC(=O)c1cc2c(cc1[N+](=O)[O-])OCO2
→ ·, ·, ·, i, 0.98, 101.9, -3.8
- Cc1sc2nc(CSc3ccccc3)nc(N3CCOCC3)c2c1C
→ 2.0, 25.9, 74.2, i, 0.92, 107.1, -8.9
- Cc1onc(C(=O)NC(C)c2ccccc2)c1[N+](=O)[O-] (stereo not given)
→ ·, 5.9, 70.5, i, 0.9, 99.6, -7.4
- Cc1ccc([N+](=O)[O-])cc1NC(=O)C(C)N1CCCCC1 (stereo not given)
→ ·, -75.0, 51.0, i, 1.02, 103.6, 2.3
- CC1CCC(NC(=O)CCNC(=O)c2ccccc2)CC1 (stereo not given)
→ ·, ·, ·, i, 0.93, 100.6, -3.5
- O=C(NCc1cccs1)[C@@H]1CSC2c3ccccc3C(=O)N21 (stereo not given in full)
→ -0.5, ·, ·, i, 1.01, 114.7, 6.3
- O=C(COc1ccccc1)N1N=C(c2cccnc2)CC1(O)C(F)(F)F (stereo not given)
→ -0.3, 31.0, 81.2, i, 0.99, 103.2, -9.6
- CC1CCCC(C)N1C(=O)c1cc(-c2ccc(Cl)c(Cl)c2)on1 (stereo not given)
→ -1.1, -12.1, 96.6, i, 0.8, 97.3, 1.7
- CNC(=S)NNC(=O)c1noc(C)c1C(=O)N1CCN(C(c2ccccc2)c2ccccc2)CC1
→ ·, 54.5, 82.8, i, 1.07, 35.8, -8.6
- COc1cc(/C=C/C(=O)OC(C)C(=O)Nc2c(C)n(C)n(-c3ccccc3)c2=O)ccc1OCC#N (stereo not given)
→ ·, ·, ·, i, 0.96, 102.0, -1.8
- CCOc1ccc(C(=O)Nc2ccccc2C#N)cc1[N+](=O)[O-]
→ -0.4, -13.8, 97.2, i, 0.85, 100.1, -5.8
- COc1ccc(Cl)cc1NC(=O)C1CCCN(S(=O)(=O)c2cccc3nonc23)C1 (stereo not given)
→ -1.0, -13.5, 84.2, i, 0.97, 94.8, -6.7
- COc1ccc(C2/C(=C(/O)c3ccc(OC(C)C)cc3)C(=O)C(=O)N2CCCN2CCOCC2)cc1 (stereo not given)
→ -0.6, 37.5, 116.6, i, 0.92, 89.1, -2.7
- Cc1ccc(F)cc1NC(=O)N1CCCN(C(=O)OC(C)(C)C)CC1
→ ·, ·, ·, i, 0.87, 97.6, ·
- CCN1CCN(Cc2c(C)[nH]c3ccc(C(=O)OC)cc3c2=O)CC1
→ -3.6, -381.2, 82.5, i, 0.73, 102.0, -3.8
- CCOCCCNC(=O)C(c1ccccc1)N(Cc1ccc2c(c1)OCO2)C(=O)CNC(C)=O (stereo not given)
→ -1.2, 0.0, 121.7, i, 0.83, 97.0, 8.0
- CN(C)S(=O)(=O)Oc1ccc(Cl)cc1C(=O)Nc1ccc(F)cc1F
→ ·, ·, ·, i, 1.2, 101.4, 1.1
- CCc1ccccc1NC(=O)c1onc(C)c1Cl
→ -1.7, ·, ·, i, 0.95, 108.8, -1.3
- O=C(CNC(=O)c1ccc(Cl)cc1)Nc1ccc(S(=O)(=O)Nc2ncccn2)cc1
→ ·, ·, ·, i, 0.88, 99.7, ·
- CCN(CC)C(=O)Cn1ncc2c1-c1ccccc1OC2
→ -2.7, ·, ·, i, 0.77, 98.1, -8.0
- C[C@@H]1C=C(C(=O)NCc2nc3ccccc3[nH]2)O[C@H](OCc2ccc(CO)cc2)C1
→ ·, ·, ·, i, 0.83, 101.0, ·
- O=C(Cc1ccc(Cl)cc1)Oc1cccc2cccnc12
→ -0.8, -66.7, 83.5, i, 0.73, 22.4*, 8.5
- Cc1ccc(O)c(CO)n1
→ ·, ·, ·, i, 1.01, 99.7, ·
- CN(C)c1ccc(/C=N\NC(=O)c2csnn2)cc1
→ -0.9, 29.3, 38.3, i, 0.93, 98.0, -13.5
- Cc1ccc(NC(=O)Nc2ncccc2C)cc1
→ -0.7, 23.7, 180.1, i, 0.99, 94.5, -0.5
- CSc1nc(=O)n(-c2ccccc2)c(C)c1C(C)=O
→ 0.3, ·, ·, i, 0.94, 101.3, -3.2

Some of these compounds in order of SMILES length, descending.
Order of results: GALR2 ag, INS promoter inh, INS promoter inh cell count, HSV augment, HSV augment primary fold, RGS16-Gao, PKD1 inh
- CCOc1ccc(C(=O)Nc2ccccc2C#N)cc1[N+](=O)[O-]
→ -0.4, -13.8, 97.2, i, 0.85, 100.1, -5.8
- Cc1onc(C(=O)NC(C)c2ccccc2)c1[N+](=O)[O-] (stereo not given)
→ ·, 5.9, 70.5, i, 0.9, 99.6, -7.4
- CC1CCC(NC(=O)CCNC(=O)c2ccccc2)CC1 (stereo not given)
→ ·, ·, ·, i, 0.93, 100.6, -3.5

Further entries
Compound,GALR2 ag,INS promoter inh,INS promoter inh cell count,HSV augment,HSV augment primary fold,RGS16-Gao,PKD1 inh
CC(=O)Nc1ccc(S(=O)(=O)Nc2ccc(C)c([N+](=O)[O-])c2)cc1,·,27.3,85.5,i,0.98,85.9,-3.5
O=C(OCN1C(=O)c2ccccc2C1=O)/C(=C\c1ccco1)NC(=O)c1ccccc1,-2.4,17.1,109.7,i,1.16,90.5,-10.4
O=C(c1ccco1)N1CCN(C(=O)c2cc3c(=O)oc4ccccc4c3s2)CC1,30.2*,·,·,i,0.98,93.7,-7.1
O=C(Cc1ccc2c(c1)CCCC2)Nc1ccccc1Br,-1.1,-50.0,89.5,i,1.01,105.2,13.2
CCCc1nc(SCC(=O)c2ccc(OC)cc2)c2ccccc2n1,·,·,·,i,0.91,·,4.6
O=C(CN1CCCc2ccccc21)NCc1ccccc1Cl,-0.2,-8.8,148.6,?,·,101.1,-1.6
CC12CCC(C(=O)Nc3ccc(SC(F)F)cc3)(CC1=O)C2(C)C (stereo not given),-1.4,·,·,i,0.72,97.7,-8.9
O=C(COC(=O)C12CC3CC(CC(C3)C1)C2)Nc1ccc([N+](=O)[O-])cc1Br,-1.2,-57.1,44.4,i,0.97,92.9,-0.5
Cc1cc2c(c(SCC(=O)NCc3ccccc3Cl)n1)C(=O)OC2,·,25.0,105.2,i,0.87,111.8,-5.9
CCCCc1nc2ccccc2c(NC(=O)CN(CC)CC)c1CCC,-1.9,-68.8,65.7,i,1.03,221.3,-3.7
Cc1cc(C)nc(-n2c(Nc3ccccc3)cc(=O)c3c(C)n(-c4ccccc4)c(=O)nc32)n1,-0.5,·,·,·,·,·,-0.8
COC(=O)C1=C(C)n2nnnc2NC1c1cc2ccccc2o1 (stereo not given),-0.7,·,·,i,0.93,106.2,-1.4
Cn1c(=O)n(C)c2cc(S(=O)(=O)N3CCCc4ccccc43)ccc21,-4.2,-39.7,113.6,i,0.9,89.9,1.5
COc1ccc(CCNCc2ccc(OCC(=O)N3CCCCC3)c(OC)c2)cc1OC,·,·,·,i,1.08,107.9,-8.3
Fc1cccc2ncnc(OCc3ccccc3)c12,·,·,·,i,0.96,104.3,-1.6
COc1ccc(C(=O)NCc2nnc(SC)n2C2CCCCC2)cc1,-1.5,·,·,i,0.98,104.1,-14.6
CC(=O)NNS(=O)(=O)c1ccc(-c2cc(C(F)(F)F)n(C)n2)s1,·,·,·,i,0.91,94.3,·
Nc1ccc(-c2nc3cc(N)ccc3s2)cc1,·,-5.0,143.5,i,0.92,80.8,-7.5

High-throughput results from PubChem BioAssay.
